HTT cytoprotect = cytoprotection in Huntington HTT-Q103 PC12 cell model | PC12 HTT-Q103 induced, cytoprotection, ATP luminescence, 40 h | AID 1471 | 230,000 tested, 0.14% active | Potency, µM (series often up to 56.4 µM), without a hit: cytoprotection (ATP increase), actives largely listed as activators;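 note: % of control where 0% means no effect; nearly all actives have a fitted effect of over 45% in size; toxic huntingtin expression switched on by the ecdysone agonist tebufenozide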
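Readout: ATPlite luminescence (ATP level). Model: stable PC12, inducible Htt exon1 Q103-GFP. Inducer: tebufenozide, 100 nM final. Compounds: dose series. No G418 in medium.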
HTT aggregate = reduces HttQ103-GFP aggregates in PC12 cells; PC12 HttQ103-GFP aggregates, Acumen cytometry, 40 h; Potency, µM (titrated, usually from 46.1 µM), for the others: at the top dose activity change, negative = inhibition, most hits filed as inhibitors; 220,000 tested, 1.1% active; AID 1688; note: % is set by controls: 0 for no effect and ±100 for the full control effect; nearly all actives have a fitted effect of over 60% in size
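Huntingtin Q103 exon 1–GFP aggregates in induced PC12 cells (100 nM tebufenozide) were quantified by cytometry from lysates, with compounds dosed in titration.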
Active calls of the source: *; u = inconclusive; x = no result given; & = joins results of further samples; [ ] = remark or other dose. Calls come from the whole dose curve; as a rule, active = well fitted curve in the direction sought with a large enough effect; inconclusive = small, poorly fitted or top-dose-only effect, or another doubt; inactive = no such curve, though single readings can be large; an effect the other way counts as inactive or inconclusive. Potency is the fitted concentration of half-maximal effect. Not all compounds are listed; most or all hits stand in other tables.

SMILES	HTT cytoprotect	HTT aggregate
O=C(O)[C@@H](O)[C@H](O)C(=O)O	-5%[10 µM]	x
CCNC(=O)C1CC(=O)N(CC)C(=Nc2cc(Cl)c(O)c(Cl)c2)S1 (stereo unspecified)	-13%	-1%[9.22 µM]
CN1CCN(C2=Nc3ccccc3Oc3ccc(Cl)cc32)CC1	u	10%
C[N+](C)(C)CCO	-14%	x
CCOC(=O)C1=C(C)NC(C)=C(C(=O)OC)C1c1cccc(Cl)c1Cl (stereo unspecified)	-48%[inhibitor]	13%&-5%

2 records drawn at random from those above, as already listed:
SMILES	HTT cytoprotect	HTT aggregate
CCNC(=O)C1CC(=O)N(CC)C(=Nc2cc(Cl)c(O)c(Cl)c2)S1 (stereo unspecified)	-13%	-1%[9.22 µM]
O=C(O)[C@@H](O)[C@H](O)C(=O)O	-5%[10 µM]	x

Complete entries from above:
Listed for CCOC(=O)C1=C(C)NC(C)=C(C(=O)OC)C1c1cccc(Cl)c1Cl (stereo unspecified) → HTT cytoprotect = -48%[inhibitor]; HTT aggregate = 13%&-5%
Listed for O=C(O)[C@@H](O)[C@H](O)C(=O)O → HTT cytoprotect = -5%[10 µM]; HTT aggregate = x

Source: PubChem (National Center for Advancing Translational Sciences (NCATS))
